Assay outcomes from PubChem BioAssay.
SARS PLpro yeast: inhibitors of SARS-CoV papain-like protease in yeast. 0.19% of 330,000 active. S. cerevisiae expressing SARS-CoV PLpro, growth rescue; control for the full effect not named in the record. Potency, µM (titrated, usually from 32.9 µM), without a hit: at the highest dose activity, positive = growth rescue; active means well fitted rising curve with a large enough effect; inconclusive means small, poorly fitted or top-dose-only effect; inactive means no such curve, though single readings can be large or run the other way; note: 0% is about no effect; nearly all actives have a fitted effect of over 55% in size; growth read by luminescence after 48 h
Cruzain Triton: cruzain (T. cruzi) inhibition with detergent; 0.43% of 200,000 active; purified cruzain, Z-FR-AMC fluorescence, 0.01% Triton; AID 1478; Potency, µM, without a hit: max response, negative = inhibition, usual class: inhibitors; P25779;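 note: plate controls were neutral wells for no effect and buffer without enzyme for full effect; nearly all actives have a fitted effect of over 40% in size; top concentration of the series not given in the record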
Target sequence (P25779 123-467 limits assumed): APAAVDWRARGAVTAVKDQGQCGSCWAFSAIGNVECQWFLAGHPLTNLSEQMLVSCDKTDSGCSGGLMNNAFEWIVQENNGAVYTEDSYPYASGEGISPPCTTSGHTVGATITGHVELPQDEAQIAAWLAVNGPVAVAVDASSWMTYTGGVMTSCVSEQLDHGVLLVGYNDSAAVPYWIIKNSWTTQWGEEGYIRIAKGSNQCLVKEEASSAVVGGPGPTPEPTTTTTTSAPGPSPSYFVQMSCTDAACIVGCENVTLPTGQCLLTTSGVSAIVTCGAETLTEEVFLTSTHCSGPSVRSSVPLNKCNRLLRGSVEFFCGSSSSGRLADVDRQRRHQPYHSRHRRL
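Detergent-containing run (0.01% Triton X-100) in acetate buffer pH 5.5 with 5 mM DTT: enzyme at 1.5 nM final, 15 min compound preincubation at room temperature, then 2 uM Z-FR-AMC substrate. Activity taken as 60 s fluorescence increase at 360/450 nm.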
RE007 growth inh: less growth of the S. pombe RE007 Vpr strain; 0.21% of 360,000 active; AID 651644; Potency, µM (titrated, usually from 92.2 µM), for inactives: at the top dose activity change, negative = less growth; S. pombe RE007 Vpr strain, BacTiter-Glo ATP luminescence, 24 h; control for the full effect not named in the record; active = well fitted falling curve with a large enough effect; inconclusive = small, poorly fitted or top-dose-only effect; inactive = no such curve, though single readings can be large or run the other way;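 note: % is set by controls: 0 for no effect and ±100 for the full control effect; nearly all actives have a fitted effect of over 50% in size; the assay follows cell death caused by Vpr and the record does not say whether a fall means rescue or toxicity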
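Fission yeast RE007 carrying one integrated HIV-1 vpr copy, seeded at OD 0.01 in PMG+AL medium with 23 nL pinned compound. Grown 24 h at 30 degrees; viability read by BacTiter-Glo luminescence after 5 min.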
Cruzain inh noDet: blocks cruzain activity in detergent-free assay; Potency, µM, inactives show max response, negative = inhibition, usual class: inhibitors; AID 1476; purified cruzain, Z-FR-AMC fluorescence, no detergent; 2.3% of 200,000 active; P25779;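 note: plate controls were enzyme without inhibitor for no effect and buffer without enzyme for full effect; nearly all actives have a fitted effect of over 40% in size; top concentration of the series not given in the record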
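Detergent-free condition (0.00005% Triton X-100) in acetate buffer pH 5.5 with DTT. 1.5 nM enzyme and compound were pre-mixed 15 min, then 2 uM Z-FR-AMC substrate added; reaction progress from fluorescence change between first and third reads (60 s).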
NS1 function inh: blocks influenza NS1 protein function; Potency, µM (series often up to 46.1 µM), inactives show at the highest dose activity, positive = more growth; S. cerevisiae slowed by influenza A NS1, growth recovery by OD600; AID 2326; 0.4% of 270,000 active; active means well fitted rising curve with a large enough effect; inconclusive means small, poorly fitted or top-dose-only effect; inactive means no such curve, though single readings can be large or run the other way; note: nearly all actives have a fitted effect of over 50% in size
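S. cerevisiae expressing influenza A NS1, grown in glucose, washed, then diluted 1:100 into pH 6.0 -URA galactose medium with 23 nl compound. Growth recovery read as OD600; NS1-free strain serves as control.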
2A StopGo: lowers the luciferase signal of an FMDV 2A StopGo reporter | 1.2% of 410,000 active | AID 1159524 | Potency, µM (series often up to 57.9 µM), without a hit: at the highest dose signal change, negative = less light | human cells with a luciferase reporter of 2A StopGo recoding; control for the full effect not named in the record; active = well fitted falling curve with a large enough effect; inconclusive = small, poorly fitted or top-dose-only effect; inactive = no such curve, though single readings can be large or run the other way; tested in HEK293T cells; note: % is set by controls: 0 for no effect and ±100 for the full control effect; nearly all actives have a fitted effect of over 45% in size; luciferase light after 4 h
MARV entry inh: inhibitors of Marburg virus binding or cell entry. 1.8% of 300,000 active. Potency, µM (top dose mostly 37.8 µM), for the others: at the highest dose activity change, negative = inhibition, most hits filed as inhibitors. Marburg virus pseudotyped entry inhibition, cell reporter; control for the full effect not named in the record; about a third of the inactives were read at about 46 µM. AID 540276; active = well fitted inhibition curve with a large enough effect; inconclusive = small, poorly fitted or top-dose-only effect, or effect the other way; inactive = flat fitted curve, though single readings scatter; tested in HEK293 cells; about a fifth of its hits are not listed in these tables; note: % is set by controls: 0 for no effect and ±100 for the full control effect; luciferase read-out
Lassa entry inh: inhibitors of Lassa virus binding or cell entry; Lassa virus pseudotype entry inhibition, cell reporter; control for the full effect not named in the record; Potency, µM (doses to about 37.9 µM), for the others: top-dose activity change, negative = inhibition, most hits filed as inhibitors; 1.2% of 300,000 active; AID 540256; active means well fitted inhibition curve with a large enough effect; inconclusive means small, poorly fitted or top-dose-only effect, or effect the other way; inactive means flat fitted curve, though single readings scatter; tested in HEK293 cells; note: % is set by controls: 0 for no effect and ±100 for the full control effect; nearly all actives have a fitted effect of over 50% in size; luciferase read-out
* = called active by the depositor; ? = inconclusive; . = no result given; & = joins results of further samples; [ ] = dose if it differs, or a comment. Unless noted, calls come from the whole dose curve; as a rule, active = well fitted curve in the direction sought with a large enough effect; inconclusive = small, poorly fitted or top-dose-only effect, or another doubt; inactive = no such curve, though single readings can be large; an effect the other way counts as inactive or inconclusive. Potency is the fitted concentration of half-maximal effect.

SMILES	SARS PLpro yeast	Cruzain Triton	RE007 growth inh	Cruzain inh noDet	NS1 function inh	2A StopGo	MARV entry inh	Lassa entry inh
COC(=O)c1c(NC(=O)c2nc3ncccn3n2)sc(C(=O)N(C)C)c1C	3%	0.1%	.	-18%	1%	.	.	.
Cc1oc2c(C)c3oc(=O)c(CC(=O)N[C@@H](CC(C)C)C(=O)N[C@@H](Cc4ccccc4)C(=O)O)c(C)c3cc2c1C	8%	.	3%	.	?	-16%	.	.
Cc1ccc(C(c2nnnn2C(C)(C)C)N2CCC(C)CC2)cc1 (stereo not drawn)	-10%	-3.0%	2%	-3%	-6%	16%	?	7%
O=C(N/N=C/c1ccco1)c1cc(-c2cccc(Br)c2)nc2ccccc12	-15%	-5.7%	18%	?	?	-6%	?	?
Cc1nc(NC(=O)c2c(-c3ccccc3Cl)noc2C)sc1C	-1%	.	-1%	.	17%	?	.	.
CCSc1nnc(-c2cccnc2)n1-c1ccc(Cl)c(C)c1	10%	0.2%	8%	5%	4%	-23%	-33%	-3%
CCOC(=O)c1c(C)[nH]c2cc(Br)c(OC)cc12	-6%	-1.6%	12%	?	-45%	3%	-25%	2%
Nc1nnn(CC(=O)N/N=C/c2ccccc2Cl)n1	0%	.	-12%	.	-3%	10%	-4%[46.1 µM]	-17%
Cc1ccc(S(=O)(=O)Nc2cc(Cl)c(O)cc2C)cc1	4%	-7.2%	8%	-12%	1%	-28%	?	-12%
CS(=O)(=O)N(CC(=O)NCc1ccncc1)C1CCCCC1	0%	.	2%	.	5%	-11%	4%[46.1 µM]	0%
O=C(CCC(=O)N1CCOCC1)NCCc1ccccc1	2%	.	3%	.	.	41%[activator]	?	1%
CCOc1ccccc1NS(=O)(=O)c1cc(-c2cnc(C3CC3)o2)ccc1C	.	-7.5%	.	29%	.	3%	.	10%[46.1 µM]
NC(=S)Cc1ccccc1Cl	1%	.	-4%	.	3%	-6%	-5%[46.1 µM]	-8%
CCC(=O)Oc1ccc2c(c1)OC1(OC(C)=O)OC(C)CC1=C2C (stereo not drawn)	-1%	.	2%	.	-6%	8%	.	.
COCCNC(=O)c1csc(Nc2cccc3ccccc23)n1	?	.	-8%	.	-23%	5%	.	.
Cc1cc(O)c(NC(=O)c2cccc([N+](=O)[O-])c2)cc1C	0%	.	-12%	.	3%	43%[activator]	0%[46.1 µM]	14%
COc1ccc(C(=O)Nn2c(SCC(=O)N3CCC(C)CC3)nc3ccccc3c2=O)cc1	-7%	-0.1%	0%	-2%	9%	11µM*	1.6µM*	8.2µM*
Cc1nc2cc(NC(=O)c3ccc([N+](=O)[O-])s3)ccc2s1	2%	.	-15%	.	-8%	11%	?	?
COc1ccc(S(=O)(=O)N(CC(=O)NCc2ccco2)c2ccccc2)cc1	-6%	-1.2%	-4%	-6%	6%	-2%	-4%	0%
Cc1cccc(NC(=O)CSCC(=O)N(C)Cc2c(F)cccc2Cl)c1	10%	.	2%	.	.	-14%	-3%	3%
COc1ccc(S(=O)(=O)NCc2ccccn2)c(Cl)c1Cl	0%	3.6%	3%	-11%	-6%	15%	?	3%
O=C(CNC(=O)c1ccccc1)NC1(C(=O)NC2CCCCC2)CCCCC1	2%	.	17%	.	.	103%[activator]	6%[46.1 µM]	?
CCSc1nnc(-c2ccccc2NC(=O)CC)c(=O)[nH]1	5%	-1.0%	4%	1%	2%	-15%	6%&6%	?
CCC(CO)NCc1sccc1C (stereo not drawn)	0%	.	-5%	.	-2%	-16%	-10%	4%
Cc1cc(-c2ccc(S(=O)(=O)N(C)Cc3ccccc3)cc2)on1	-3%	.	3%	.	-1%	-17%	.	.
COc1ccc(NC(=O)C(=O)NCC(=O)Nc2cccc(C(F)(F)F)c2)cc1	0%	.	2%	.	0%	-8%	-6%[46.1 µM]	?
Cc1cc2c(cc1C)N(C(=O)CSc1nncn1C)C(C)(C)c1ssc(=S)c1-2	2%	-12%	16%	?	11%	.	?	-18%
CCC(C)(O)c1[nH]c2ccc(C(=O)OC)cc2c1C (stereo not drawn)	1%	.	-5%	.	-24%	28%	.	.
O=C(NC1CCCN(c2ccc(C(F)(F)F)cn2)C1)c1ccnc(Cl)c1 (stereo not drawn)	-1%	.	-11%	.	2%	?	16%	?
Nc1nc(NCc2ccco2)nc(N2CCCC2)c1[N+](=O)[O-]	0%	.	-9%	.	-4%	?	-3%[14.2 µM]	-19%
Cc1ccc(S(=O)(=O)NCC(=O)N(CC2CCCO2)C(C(=O)NC2CCCCC2)C(C)C)cc1 (stereo not drawn)	1%	.	1%	.	2%	-6%	-10%[46.1 µM]	-8%
CCCNC(=O)CCn1c(-c2ccc(C)cc2)cc(C(=O)OCC)c1C	-21%	-3.4%	-23%	?	11%	-13%	-17%	-8%
CC12CCC(C(=O)NNC(=O)c3ccc(F)cc3)(OC1=O)C2(C)C (stereo not drawn)	1%	.	19%	.	-10%	5%	13%	?
COC(=O)Cn1c(C)c(/C=C/c2cc[n+](C)cc2)c2ccccc21	0%	.	-1%	.	6%	0%	.	.
Cc1cccc(N2C(=O)c3cccc4c(N5CCCCC5)c([N+](=O)[O-])cc(c34)C2=O)c1C	-13%	-6.4%	20%	?	-5%	-23%	?	?
O=C(Nc1ccccc1N1CCCCC1)c1cc(S(=O)(=O)N2CCOCC2)ccc1Cl	5%	.	0%	.	.	-29%	-34%	6%
COc1ccc(/C=C(\C#N)C(=O)OCC(=O)Nc2c(C)cccc2C)cc1	-1%	-0.6%	7%	?	7%	-23%	?	-5%
Cc1ccc2[nH]c(=O)c(CN(c3cccc(C)c3C)S(=O)(=O)c3ccccc3)cc2c1	-8%	.	19%	.	6%	?	.	.
CCn1c(=O)[nH]c(=O)c2c(N)c(C(=O)c3cc(F)ccc3F)sc21	-1%	.	0%	.	10%	-7%	-15%[46.1 µM]	-24%
COc1ccc(C(=O)c2ccccc2Cl)cc1OC	-1%	.	5%	.	-7%	-15%	?	22%
Cn1nnnc1SCCNCc1ccccc1OCc1ccc(Cl)cc1Cl	.	-3.9%	.	2%	.	?	8%[46.1 µM]	-27%[46.1 µM]
CC1CN(C(=O)c2cccs2)CC(C)O1 (stereo not drawn)	-2%	.	3%	.	.	10%	-1%[46.1 µM]	19%[46.1 µM]
Cc1nn(-c2ccccc2)c(Cl)c1/C=N/NC(=O)OC(C)(C)C	-14%	-4.0%	-6%	5%	-4%	-20%	?	?
O=C(NCCCCc1ccccc1)c1ccc(Br)o1	.	-16%	-23%	-10%	-39%	14%	3%	-7%
COc1ccc(OCC(=O)Nc2ccc(S(=O)(=O)Nc3cc(C)nc(C)n3)cc2)cc1	27%	-0.2%	0%	11%	-1%	61%[activator]	0%&0%	9%
CCCCNC(=O)c1cc(C)nn1-c1ccccc1	-1%	.	0%	.	-2%	-6%	18%[46.1 µM]	-12%[46.1 µM]
O=C(NC1=C(Nc2ccc(F)cc2)C(=O)c2ccccc2C1=O)c1ccc(Cl)cc1	-41%	-6.0%	?	-10%	-6%	?	14%	?
O=[N+]([O-])c1nc2ccccc2[nH]1	.	.	-27%	.	.	-8%	?	22%
Cc1nnc2c(-c3ccccc3)nc3ccccc3n12	-2%	4.1%	0%	-3%	-13%	-7%	-1%	-2%
COC(=O)c1ccc(NC(=O)CSc2nncn2C)cc1	-6%	6.9%	8%	6%	?	2%	2%	6%
Cc1ccc(C)c2[nH]c(=O)c(CCNC(=O)Cc3cccs3)cc12	10%	-1.4%	7%	-8%	?	-4%	18%	5%
COc1ccc(C(=O)Nc2ccc(NS(=O)(=O)c3ccccc3)cc2)cc1OC	2%	.	-24%	.	-2%	-5%	-14%[46.1 µM]	-4%
O=C(NCc1ccccc1)N1CCC(n2cnc3cc(F)ccc32)CC1	2%	1.5%	-15%	-2%	-10%	-9%	27%	3%
Cc1ccc(OCC(=O)N/N=C\c2ccco2)c(C)c1	1%	0.0%	15%	5%	-29%	.	6%	1%
COc1cc(NC(=O)N2c3ccccc3Sc3ccccc32)c(C(=O)O)cc1OC	1%	.	-23%	.	-13%	-2%	.	.
O=C(CSc1nc(-c2ccc(F)cc2)[nH]c1-c1ccc(F)cc1)Nc1ccc2c(c1)OCCO2	.	-6.1%	.	1%	.	?	?	?
CN(C(=O)CSc1nc(O)cc(=O)n1C1CCCC1)c1ccccc1	1%	.	-7%	.	?	-7%	-18%[46.1 µM]	10%
CC(C)CC(=O)N1CCN(CC2CC=CCC2)CC1 (stereo not drawn)	0%	1.1%	4%	-16%	6%	-3%	-10%	-15%
CCOc1cc(CN2CCN(S(=O)(=O)c3ccc(C)cc3)CC2)ccc1OC	.	-2.2%	.	15%	.	-22%	-16%[46.1 µM]	-24%[46.1 µM]
Cc1ccc(C(C)NC(=O)c2cccnc2)cc1 (stereo not drawn)	.	.	0%	.	.	9%	?	-6%[46.1 µM]

For convenience, part of the list above:
SMILES	SARS PLpro yeast	Cruzain Triton	RE007 growth inh	Cruzain inh noDet	NS1 function inh	2A StopGo	MARV entry inh	Lassa entry inh
COc1ccc(C(=O)Nc2ccc(NS(=O)(=O)c3ccccc3)cc2)cc1OC	2%	.	-24%	.	-2%	-5%	-14%[46.1 µM]	-4%
O=C(NCc1ccccc1)N1CCC(n2cnc3cc(F)ccc32)CC1	2%	1.5%	-15%	-2%	-10%	-9%	27%	3%
Cc1ccc(OCC(=O)N/N=C\c2ccco2)c(C)c1	1%	0.0%	15%	5%	-29%	.	6%	1%
COc1cc(NC(=O)N2c3ccccc3Sc3ccccc32)c(C(=O)O)cc1OC	1%	.	-23%	.	-13%	-2%	.	.
O=C(CSc1nc(-c2ccc(F)cc2)[nH]c1-c1ccc(F)cc1)Nc1ccc2c(c1)OCCO2	.	-6.1%	.	1%	.	?	?	?

Compounds were not picked by outcome (roughly 4.6% active in at least one column).
